# Screens from PubChem BioAssay.
# ALR inh = inhibitors of human ALR sulfhydryl oxidase, primary screen, biochemical, H2O2 detection, HRP-luminol luminescence, single point; hit rate 3.8% among 290,000; inhibition, % (test concentration not listed); AID 485317, 2010; purified ALR, DTT oxidation; FAD-linked sulfhydryl oxidase ALR (Homo sapiens), P55789;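 active means mean and each replicate at 75% or more; inconclusive means only one of the two met; inactive means neither met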;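 further: stock transfer was 7.5 nL into about 7.5 µL; 0% = neutral wells and 100% = wells with inactivated enzyme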
# Target sequence (P55789 whole entry, looked up): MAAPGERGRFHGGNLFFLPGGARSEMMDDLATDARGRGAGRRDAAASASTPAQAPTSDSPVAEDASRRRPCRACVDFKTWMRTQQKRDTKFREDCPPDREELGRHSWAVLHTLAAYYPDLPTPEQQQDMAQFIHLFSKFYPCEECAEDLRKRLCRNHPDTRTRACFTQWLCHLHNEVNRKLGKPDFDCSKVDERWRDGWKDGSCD
# RanGTP-Impb inh = inhibitors of RanGTP-importin-beta interaction, primary screen, biochemical, FRET, CFP-Ran, YFP-importin-beta, homogeneous; AID 2216, 2009; inhibition, % (test concentration not listed); cell-free CFP-Ran/YFP-importin-beta FRET ratio; hit rate 1.1% among 300,000; Ran GTPase (GTP-bound) - importin-beta complex;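 active means most replicates above 15%; inconclusive means exactly half above 15%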;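 further: 0% = DMSO wells and 100% = Ran loaded with GDP instead of GTP; wells of about 40 µL received 100 nL stock; the first replicate is given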
# HNF4A DNA FP = change in binding of human HNF4A to DNA, primary screen, biochemical, fluorescence polarization, FITC-DNA. Hepatocyte nuclear factor 4-alpha (Homo sapiens), P41235. 1 h. activity change, % at 10 µM. hit rate 0.3% among 360,000; in the data active means activity change above about 30%, passing the limit was not always enough;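 further: controls were the assay level and a saturating level of protein; the project sought stronger binding though the title names inhibitors; some compounds called inactive have numbers as strong as hits; positive values seem to mean higher polarization but the record does not say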
# Target sequence (P41235 whole entry, looked up): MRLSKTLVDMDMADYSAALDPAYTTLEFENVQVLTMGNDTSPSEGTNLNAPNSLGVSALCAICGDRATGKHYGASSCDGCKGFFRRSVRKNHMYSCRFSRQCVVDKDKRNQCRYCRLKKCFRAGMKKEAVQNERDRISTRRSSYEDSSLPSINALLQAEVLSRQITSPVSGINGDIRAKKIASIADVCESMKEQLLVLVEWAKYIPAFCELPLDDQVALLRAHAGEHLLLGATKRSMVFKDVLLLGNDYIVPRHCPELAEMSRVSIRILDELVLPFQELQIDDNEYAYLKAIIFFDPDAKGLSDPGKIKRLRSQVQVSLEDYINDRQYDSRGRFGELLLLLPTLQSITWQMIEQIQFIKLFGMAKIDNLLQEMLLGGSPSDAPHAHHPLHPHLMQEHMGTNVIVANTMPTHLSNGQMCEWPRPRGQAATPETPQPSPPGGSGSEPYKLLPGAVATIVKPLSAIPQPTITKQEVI
# Calb FLC = C. albicans growth inhibition with fluconazole, primary screen, CaCi-2 strain, Alamar Blue fluorescence | C. albicans CaCi-2 (fluconazole-resistant clinical isolate) + fluconazole, 48 h | AID 1979, 2009 | growth inhibition, % (no concentration beside the values) | hit rate 0.57% among 300,000;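 active means most replicates above 75%; inconclusive means exactly half above 75%; inactive means most below 75%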;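 further: all wells also contain fluconazole at 8 µg/ml as a sub-toxic cotreatment; 0% = median of DMSO wells and 100% = median of geldanamycin control wells; wells of about 8 µL received 7.5 nL stock; the first replicate is given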
# LANA-H2B inh = blockers of LANA interaction with H2A/H2B – biochemical, FP readout, HTS, primary screen. Protein LANA1 (Human herpesvirus 8 type P (isolate GK18)), Q9QR71. cell-free LANA-H2A/H2B peptide, fluorescence polarization. inhibition, % (test concentration not listed). hit rate 0.6% among 320,000; in the data active means inhibition mostly above about 10%, no sharp cut-off; inactive means mostly below about 6.7%;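 further: stock transfer was 7.5 nL into about 10 µL; 0% = median of vehicle wells and 100% = median of positive control wells; one replicate is shown; the record names a cut of 25% in any replicate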
# Vif A3G = inhibitors of Vif binding to APOBEC3G peptide, primary screen, biochemical, TR-FRET, GST-Vif 1-94, biotin-A3G peptide, dose response retest (AID 1117319); inhibition, %; hits with a dose series show IC50 in µM; Virion infectivity factor (Human immunodeficiency virus type 1 group M subtype B (isolate …; hit rate 0.57% among 260,000; TR-FRET GST-Vif / biotin-A3G peptide binding; higher % means a stronger effect; test concentration not given here; strong numbers were not always called active;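 active means above the screen mean plus three standard deviations and confirmed in dose response; inconclusive means results disagree or hit not tested in dose response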;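 further: Vif residues 1-94 fused to GST binding biotinylated APOBEC3G peptide 110-148; 0% = full assay without inhibitor and 100% = GST in place of GST-Vif; retest series ran down from 100 µM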
# Beta2AR agonist = beta2AR agonists driving receptor internalization, primary screen, cell-based, FAP fluorogen, flow cytometry | Am2.2-beta2AR cells; reference of the scale not given here | Beta-2 adrenergic receptor (Homo sapiens), P07550 | AID 504454, 2011 | response, % (concentration not given with the values) | hit rate 0.43% among 340,000;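 active means response above a set limit, near 3 SD of response in nonfluorescent compounds, cut at about 42% in these data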;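 further: stock transfer was 100 nL into about 11 µL; a reference agonist was the positive control; negative values mostly stem from fluorescent compounds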
# Target sequence (P07550 whole entry, looked up): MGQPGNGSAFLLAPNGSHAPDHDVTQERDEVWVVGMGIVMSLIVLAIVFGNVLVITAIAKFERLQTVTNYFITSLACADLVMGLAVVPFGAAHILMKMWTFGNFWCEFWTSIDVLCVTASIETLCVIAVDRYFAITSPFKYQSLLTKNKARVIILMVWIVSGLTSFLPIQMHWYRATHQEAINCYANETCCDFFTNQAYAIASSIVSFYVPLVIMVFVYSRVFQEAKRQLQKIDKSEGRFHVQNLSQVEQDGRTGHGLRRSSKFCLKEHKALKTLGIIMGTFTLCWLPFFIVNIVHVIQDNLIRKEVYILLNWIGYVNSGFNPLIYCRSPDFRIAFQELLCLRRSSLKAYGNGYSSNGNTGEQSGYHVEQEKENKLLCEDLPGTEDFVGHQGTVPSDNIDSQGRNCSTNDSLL
# * marks the source's active call; other numbers are inactive results; ? = inconclusive; / = no result given; & = joins results of further samples.
# The first 2 compounds as a preview:
Structure	ALR inh	RanGTP-Impb inh	HNF4A DNA FP	Calb FLC	LANA-H2B inh	Vif A3G	Beta2AR agonist
O=C(N/N=C/c1ccoc1)c1ccc(Br)cc1	6.4	-0.9	-0.2	-2.3	-8.0	/	2.5
CCCC(=O)Nc1ccc(C(=O)NCCCn2ccnc2)cc1	-7.2	4.0	4.1	59.5	-0.5	-3.2%	1.4

# All compounds of this part, from the start:
Structure	ALR inh	RanGTP-Impb inh	HNF4A DNA FP	Calb FLC	LANA-H2B inh	Vif A3G	Beta2AR agonist
O=C(N/N=C/c1ccoc1)c1ccc(Br)cc1	6.4	-0.9	-0.2	-2.3	-8.0	/	2.5
CCCC(=O)Nc1ccc(C(=O)NCCCn2ccnc2)cc1	-7.2	4.0	4.1	59.5	-0.5	-3.2%	1.4
Cc1ccc(C(=S)NCS(=O)(=O)c2ccc(C)cc2)cc1	?	6.2	-1.2	?	-2.0	3.4%	-1.7
Cc1nc2ccc(C(=O)N3CCN(Cc4ccccc4)CC3)cc2[nH]1	-1.6	-1.2	3.0	-21.6	6.5	/	-5.5
Cc1nc(SCc2nc3ccc(Cl)cc3[nH]2)c2oc3ccccc3c2n1	-8.5	/	6.0	/	-4.4	/	-12.7
Cc1cc2c(N)cccc2nn1	9.4	-8.3	-51.3	-6.4	9.0	<0.195µM*	12.7
CCN1CCN(C(=O)/C=C/c2ccc(C)o2)CC1	-7.5	-2.0	-3.4	-1.9	7.8	?	1.6
C=CCNc1ccc(N2C(=O)C3CCC(C)CC3C2=O)cc1[N+](=O)[O-] (stereo not given)	-2.6	-3.9	/	-3.1	3.9	?	/
CCOC(=O)c1sc(NC(=O)CSc2nccc(C)n2)nc1C	-3.9	0.0	5.6	12.3	1.1	3.9%	-3.1
COc1ccc(C(=O)N2CCN(C3CCCCC3)CC2)cc1OC	0.9	13.1	2.4	6.3	3.3	-3.1%	10.3
O=C(COc1ccc2ccccc2c1)NCC1CCCO1 (stereo not given)	-19.1	1.3	-3.1	9.4	5.9	/	-1.5
Cc1cccc(Nc2nnc(SCC(=O)c3c(N)n(C4CC4)c(=O)[nH]c3=O)s2)c1C	-3.3	/	0.3	/	4.0	15.1%	8.0
CN1CCN(CP(=O)(N2CCOCC2)N2CCOCC2)CC1	2.5	1.5	-2.4	-7.0	0.4	3.1%	3.4
CC(Oc1ccccc1)C(=O)Nc1nnc(S(=O)(=O)N2CCCCC2)s1 (stereo not given)	-11.0	1.4	0.3	-6.9	0.4	/	8.4
Cc1cc(C)cc(N(CC(=O)NCc2ccccc2)C(=O)CCC(=O)Nc2ccccn2)c1	4.4	?	2.5	1.5	-1.1	-4.6%	2.9
O=C(O)c1cccc(Nc2ccc([N+](=O)[O-])cn2)c1	0.6	0.8	2.0	0.4	-1.9	/	-3.2
CCn1c(SCC(=O)Nc2ccccc2)nnc1C1CCCCC1	-5.5	-0.8	-0.3	-1.7	2.7	1.2%	2.0
Cc1cccc(-c2onc3ccc(C4(C)OCCO4)cc23)c1	-2.7	7.0	-1.4	-0.7	0.7	0.9%	17.8
C=CCNC(=O)c1ccc2c3n(nc2c1)-c1ccccc1CO3	5.2	-1.2	-1.1	-2.6	-6.1	21.9%	0.5
CCOC(=O)/C=c1\s/c(=C(\C#N)C(=O)OCC)n(-c2ccccc2)c1=O	-5.8	-1.4	-4.2	-0.9	2.0	16.0%	4.5

Structure	ALR inh	RanGTP-Impb inh	HNF4A DNA FP	Calb FLC	LANA-H2B inh	Vif A3G	Beta2AR agonist
Cc1ccc(S(=O)(=O)N2CCN(C(=O)C3CCCO3)CC2)cc1C (stereo not given)	0.6	0.8	0.2	-1.2	2.0	/	0.9
CC(=O)Nc1ccc(S(=O)(=O)N(C)CC(=O)N/N=C/c2ccncc2)cc1	1.1	2.6	0.0	0.1	-6.3	/	0.2
CCCc1[nH]n(-c2ccc([N+](=O)[O-])cc2)c(=O)c1C=NCCc1c[nH]c2ccccc12	-1.3	-2.8	3.9	-1.7	1.5	21.1%	0.1
Cc1cc(S(=O)(=O)N2CCCOC2CNC(=O)C(=O)NCc2ccco2)ccc1F (stereo not given)	5.0	-3.7	0.7	?	-3.2	-2.5%	5.9
O=C(NC1(C(F)(F)F)Oc2ccccc2O1)N1CCCC1	/	2.4	-2.9	?	-0.3	16.5%	3.1
COc1ccc(C)cc1NC(=O)CCNS(=O)(=O)c1ccc2c(c1)CC(C)N2C(C)=O (stereo not given)	-0.9	?	-1.1	21.3	1.2	-0.1%	-3.9
CC1CCc2sc(C(=O)OC(C)C(=O)Nc3ncc(Cl)cc3Cl)cc2C1 (stereo not given)	4.0	1.3	/	-20.7	-1.2	-1.1%	/
CCN(CC)C(=S)SCC(=O)c1ccc(Br)cc1	48.2	/	-1.1	-22.6	-7.3	-8.5%	0.9
CON(C)S(=O)(=O)c1cccc(C(=O)Nc2ccc(S(=O)(=O)NC3=NCCCCC3)cc2)c1	/	/	0.1	/	/	7.1%	-0.8
C(=N\n1cnnc1)/c1cn(-c2cccs2)nc1-c1ccccc1	0.7	1.0	-0.1	5.7	-2.9	-2.7%	-11.4
Cc1cc(Nc2cccc(Cl)c2C)n2ncnc2n1	-7.3	2.4	-0.4	27.6	-2.6	28.1%	11.4
Cc1c(O)ccc(/C(Cc2ccc3ccccc3n2)=N\O)c1O	27.7	3.2	5.1	13.6	0.0	?	3.7
CCOc1cc(CNCCc2ccc(S(N)(=O)=O)cc2)ccc1OCc1ccccc1	1.3	-0.4	0.1	-14.4	1.4	5.2%	13.2
CCOc1ccccc1NC(=O)CN1CCC(C(=O)c2ccc(OC)cc2)CC1	-2.8	3.4	-1.7	-18.8	3.0	-2.9%	-2.2
COc1ccccc1C1CC(c2ccccc2)Nc2ncnn21 (stereo not given)	-4.3	?	3.8	23.0	-1.7	6.0%	-1.7
Cc1nc2cc(NC(=O)Nc3ccc(N4CCOCC4)cc3)ccc2n1C	44.6	3.1	-0.5	12.7	9.5	99.2µM*	2.2
CNC(=O)C1CC(=O)N(c2ccc(OCC(=O)NCc3ccccc3)cc2)C1 (stereo not given)	0.1	0.7	3.9	-28.4	3.6	/	1.8
Cc1ccccc1N(C(=O)Cn1nnc2ccccc21)C(C(=O)NCc1ccco1)c1ccncc1 (stereo not given)	1.3	0.0	-1.7	-2.8	-10.1	-3.0%&-7.7%	0.7
O=C1OC(c2ccccc2)=N/C1=C/c1cccc(OC(=O)c2cccs2)c1	9.8	-0.2	-1.8	-5.1	3.1	-8.9%	0.4
COc1ccc(CC(NC(C)=O)C(=O)NC2CCN(c3nc(C)cc(C)c3C#N)CC2)cc1 (stereo not given)	/	7.9	0.9	-1.3	-1.0	/	1.7

# Complete entries, quoted from the list. Order of values: ALR inh | RanGTP-Impb inh | HNF4A DNA FP | Calb FLC | LANA-H2B inh | Vif A3G | Beta2AR agonist
# Entry for `Cc1c(O)ccc(/C(Cc2ccc3ccccc3n2)=N\O)c1O` : 27.7 | 3.2 | 5.1 | 13.6 | 0.0 | ? | 3.7
# Entry for `CCOc1cc(CNCCc2ccc(S(N)(=O)=O)cc2)ccc1OCc1ccccc1` : 1.3 | -0.4 | 0.1 | -14.4 | 1.4 | 5.2% | 13.2
# Entry for `O=C1OC(c2ccccc2)=N/C1=C/c1cccc(OC(=O)c2cccs2)c1` : 9.8 | -0.2 | -1.8 | -5.1 | 3.1 | -8.9% | 0.4
# Entry for `O=C(NC1(C(F)(F)F)Oc2ccccc2O1)N1CCCC1` : / | 2.4 | -2.9 | ? | -0.3 | 16.5% | 3.1
# Entry for `CCN(CC)C(=S)SCC(=O)c1ccc(Br)cc1` : 48.2 | / | -1.1 | -22.6 | -7.3 | -8.5% | 0.9

# Additional results follow:
Structure	ALR inh	RanGTP-Impb inh	HNF4A DNA FP	Calb FLC	LANA-H2B inh	Vif A3G	Beta2AR agonist
CC1CCC2C(C1)OS(=O)(=O)NC2(C)C (stereo not given)	-3.3	?	/	7.8	-2.5	/	/
CC(=O)NCCc1ccc(C(=O)COC(=O)c2cc(C)oc2C)cc1	-6.9	/	-1.4	/	4.0	-3.7%	2.2
Cc1ccc(NC(=O)Cn2c(=O)cnc3ccccc32)cc1S(=O)(=O)N(C)C	-1.8	-0.2	27.2	12.6	-5.5	-2.4%	28.0
CC1(c2ccc([N+](=O)[O-])cc2)NC(=O)N(CC(=O)c2ccc3c(c2)OCO3)C1=O (stereo not given)	-4.6	-1.9	0.8	/	-0.8	/	-10.0
Cn1cnnc1SCNC(=O)C(F)(F)F	-10.8	4.3	-2.1	-5.2	-2.5	4.0%	5.0
Cc1ccc(S(=O)(=O)N2CCN(c3ccc([N+](=O)[O-])cn3)CC2)cc1	/	-0.7	-0.4	5.4	0.7	-3.2%	-1.1
CC(C)(C)OC(=O)C[C@@H]1C/C=C\C[C@H](CC(=O)N[C@H](CO)Cc2ccccc2)C(=O)N[C@H](C(C)(C)C)COC1=O	/	/	-1.2	/	/	4.3%	-6.5
COc1ccc2c(c1)c(C(=O)CNc1nc(C)cs1)c(C)n2C	98.4*	-0.4	1.8	-0.9	1.1	-2.9%&-0.4%	1.7
CCOC(=O)c1nnn(-c2nonc2-n2cccc2)c1C	1.3	23.9	2.3	-3.1	-0.9	2.4%	-1.4
CNC(=O)N(C1=NCC(C)S1)c1ccc(F)cc1F (stereo not given)	-8.8	-0.2	1.7	-7.5	4.4	-0.2%	-13.3
Cc1ccccc1C#N	-75.0	/	-0.3	/	-4.5	/	-3.2
O=C(OC1CCCCC1=O)c1cccc(S(=O)(=O)N2CCOCC2)c1 (stereo not given)	-2.6	/	0.7	-8.4	1.6	5.0%	7.1
COc1ccc(NS(=O)(=O)c2cccc(C(=O)O)c2)cc1	-0.7	-0.8	-3.5	0.1	-1.5	3.3%	6.5
CN(c1ccccc1C(=O)N1CCc2ccccc2C1)S(C)(=O)=O	-2.7	1.4	-2.3	-8.5	2.1	24.0%	-2.3
O=[N+]([O-])c1ccc(Cl)c(S(=O)(=O)/N=C(/Nc2cccnc2)c2ccccc2)c1	-6.8	/	-3.4	/	11.2	-3.0%	-10.8
CCOC(=O)c1c(C)n(C)c2ccc(OC(C)=O)cc12	-5.1	3.3	1.0	10.8	1.2	-1.4%	-1.0
CCOC(=O)C1CCN(CC(=O)Nc2ccc(S(=O)(=O)N3CCC(C)CC3)cc2)CC1	-4.1	4.1	-0.3	-6.1	4.1	/	1.4
CCN(CC)C(=O)/C(=C\c1ccncc1)NC(=O)c1ccccc1	-3.3	-0.5	-2.5	14.1	1.7	/	-8.6
COc1ccc(N2CCN(C(=O)CCCn3c(=O)c4cccn4c4cccnc43)CC2)cc1	73.5	-0.4	1.3	-11.1	1.2	-2.0%	-11.3
CCC(=O)Oc1ccc(C2N(C(=O)CC)CCN2S(=O)(=O)c2ccc(C)cc2)cc1OC (stereo not given)	-1.0	3.6	0.7	-7.0	-0.3	4.9%	-0.9
CCN(CC)C(=O)COn1c(SCC(=O)N(CC)CC)nc2ccccc2c1=O	-25.5	/	8.9	/	7.8	20.2%	-2.5
CCC(=O)N=c1sc2cc([N+](=O)[O-])ccc2n1CCOC	-7.4	4.3	-1.2	30.2	1.7	/	-1.1
